Screening results from PubChem.
H5N1 CPE: antiviral screen in MDCK cells, H5N1 avian flu; AID 740; inhibition, % at 50 µM; hit rate 0.07% among 96,000; cytopathic effect, luminescence, 72 h; stronger effect = higher value; no value below 0 was filed and about half of the inactive calls have no number; reference of the scale not given here; in the data active = inhibition above about 25%
* hit, by the source's call; i = inactive. A portion of the library. The share of hits here may be higher or lower than overall.

SMILES	H5N1 CPE
c1ccc2sc(C3CCCNC3)nc2c1 (stereo unspecified)	0.1
O=C(CCCNS(=O)(=O)c1cccs1)N1CCc2ccccc2C1	i
Nc1nc(C(=O)N2CCOCC2)nn1S(=O)(=O)c1ccc(Cl)cc1	i
COc1ccc(C2(CNC(=O)c3ccc(Br)o3)CCOCC2)cc1	2.8
CCSc1nnc(-c2cccs2)o1	1.1
O=c1c2ccccc2c(-c2ccccc2)nn1Cc1c(Cl)cccc1Cl	i
CCCc1cc(=O)oc2cc(C)c3c(C)coc3c12	1.0
CCN(CC)S(=O)(=O)c1cccc(-c2nnc(SCCOc3ccccc3C)o2)c1	0.4
CCOc1ccc(NC(=O)CSc2nnc(COc3c(C)cccc3C)o2)cc1	0.5
CCOC(=O)C1=C(C)N(C)C(=S)NC1c1ccccc1Cl (stereo unspecified)	0.6
Cc1cccc2cc(CN(CC3CCCO3)C(=O)c3cnccn3)c(=O)[nH]c12 (stereo unspecified)	i
CCSc1nsc(SCC)c1C(N)=O	0.7
COC(=O)c1c(-n2cnnn2)sc(C)c1C	i
Cc1ccc(C)n1-c1sc2c(c1C#N)CCC(C)C2 (stereo unspecified)	1.1
O=C(CC1(O)C(=O)N(CCc2ccccc2)c2ccccc21)c1ccco1 (stereo unspecified)	0.8
COc1ccccc1C(=O)Nc1ccc(N2CCCCC2)cc1	i
COc1ccccc1NC(=O)CCCC(=O)OCC(F)(F)C(F)F	i
CCOC(=O)CSc1nc(-c2ccccc2)nc2c1oc1ccccc12	2.1
COc1cc2c(cc1NC(=O)COc1ccccc1OC)oc1ccccc12	0.5
O=C(ON=C1CCN(S(=O)(=O)c2ccccc2)CC1)c1ccccc1	i
CC(CC(=O)O)CC1=NS(=O)(=O)c2ccccc2N1 (stereo unspecified)	i
COc1ccc(C(=O)NCCc2nnc(SCC(=O)Nc3ccccc3)n2C)cc1	i
CCCCn1c(N)c(N(CCOC)C(=O)CSc2nc3ccc(C)cc3[nH]2)c(=O)[nH]c1=O	0.3
CCOC(=O)C(CC)Sc1nc2c(c(=O)[nH]c(=O)n2C)n1CCc1ccccc1 (stereo unspecified)	2.9

In the list so far, 6 contain four or more nitrogen atoms:
SMILES	H5N1 CPE
Nc1nc(C(=O)N2CCOCC2)nn1S(=O)(=O)c1ccc(Cl)cc1	i
Cc1cccc2cc(CN(CC3CCCO3)C(=O)c3cnccn3)c(=O)[nH]c12 (stereo unspecified)	i
COC(=O)c1c(-n2cnnn2)sc(C)c1C	i
COc1ccc(C(=O)NCCc2nnc(SCC(=O)Nc3ccccc3)n2C)cc1	i
CCCCn1c(N)c(N(CCOC)C(=O)CSc2nc3ccc(C)cc3[nH]2)c(=O)[nH]c1=O	0.3
CCOC(=O)C(CC)Sc1nc2c(c(=O)[nH]c(=O)n2C)n1CCc1ccccc1 (stereo unspecified)	2.9

Going on with the list.
SMILES	H5N1 CPE
CCN(CC)c1ccc(N=Cc2c(O)n(-c3ccc(Cl)cc3)c(=O)[nH]c2=O)cc1	i
O=C(CCSc1nnnn1-c1ccccc1)N1CCOCC1	1.1
CCCn1c(SCC(=O)c2ccc3c(c2)OCCO3)nnc1C(C)C	i
CCOC(=O)CC(NC(=O)c1ccco1)c1ccccc1Cl (stereo unspecified)	i
CCOC(=O)c1cnc(C(C)(C)C)[nH]c1=O	i
CC1(C)CC(=O)C=C(N2CCNCC2)C1	i
COC(=O)c1ccccc1NC(=O)CSc1nnc(-c2cccc(NC(C)=O)c2)n1C	1.5
c1ccc(-c2nnc(SCc3nc4ccccc4[nH]3)o2)cc1	1.6
CCCCSCCCNC(=O)Nc1cccc(OC)c1	i
O=C(O)c1ccc2nc(C(F)(F)F)[nH]c2c1	1.1
Cc1ccc2nc(Cl)c(CN(Cc3cccs3)C(=O)C3CC3)cc2c1	i
N#Cc1c2n(c3c(=O)[nH]cnc13)CCCC2	1.4
CCOC(=O)C1CCCN(C(=O)c2cnn3c(C(F)F)cc(-c4ccc(C)cc4)nc23)C1 (stereo unspecified)	1.2
CC1=C(C(=O)Nc2ccccn2)C(c2ccc(Br)cc2)n2ncnc2N1 (stereo unspecified)	i
CCOc1cc(C#N)c(NC(=O)c2ccnn2C)cc1OCC	i
Cn1nnnc1SCC(=O)Nc1ccccc1-c1ccccc1	i
COc1ccc(S(=O)(=O)N2CCCC(C(=O)NCc3ccccn3)C2)cc1Cl (stereo unspecified)	i
CC1(C)CC2(CCO1)OC(=O)CC2C(=O)Nc1cccc2ccccc12 (stereo unspecified)	0.8
CC1(C)CC(=O)C2=C(C1)N(c1ccccc1C#N)C(N)=C(C#N)C2c1cccs1 (stereo unspecified)	1.9
CCOC(=O)N1CCC(N2CCN(c3cc(C)ccc3C)CC2)CC1	i
Cn1c(=O)c2cc(S(=O)(=O)N3CCOCC3)ccc2n(C)c1=O	0.2
O=C1N/C(=N\N=C\c2cccnc2)SC1Cc1ccc(SC(F)F)cc1 (stereo unspecified)	i
CC(=O)N/N=C/c1cc([N+](=O)[O-])ccc1OCCOc1ccccc1	i
COC(=O)c1ccc(OCC(=O)NC(C)(C)C)cc1	i
Oc1ccc(-c2[nH]ncc2-c2ccc(Cl)cc2)c(O)c1	i
CC(C)c1nc2n[nH]c(N)c2c2c1CCCC2	0.5
N#CCOc1nc(N2CCOCC2)nc(N2CCOCC2)n1	0.7
CCCc1cc(C(=O)Nc2cccnc2)no1	1.2
COc1ccc(S(=O)(=O)N2CCSC2c2ccc(OC)c(OC)c2)cc1 (stereo unspecified)	0.4
CC(=O)NCCc1ccc(S(=O)(=O)N2CCOCC2)cc1	i
CC1(C)CNC(=O)c2sc(N3CCCCC3)nc2C1	1.4
Cc1cc(Cl)ccc1NC(=O)Nc1c(C)n(-c2ccccc2)c(=O)n1C	i
CCCCOCCCNC(=O)Cc1cccs1	i
COc1ccc(OC)c(C2/C(=C(\O)c3ccc(OC)c(Cl)c3)C(=O)C(=O)N2CCN(C)C)c1 (stereo unspecified)	0.4
COc1cc(CNCCO)cc(Br)c1OCc1cccs1	i
O=C(COc1ccc(-c2nnco2)cc1)N1CCN(S(=O)(=O)c2ccccc2)CC1	2.8
Cc1cccc(C(=O)O/N=C/c2c(Cl)n(C)c3ccccc23)c1	i
CCNS(=O)(=O)c1ccc(Br)c(OC)c1	i
O=C(O)CCCN=C1CCCc2ccccc2N1	i
N#CC(C(N)=O)=C1CCC2(CC1)OCCCCO2	i
COc1cccc(/C=N/n2c(=S)n(C)c3cc(C)c(C)cc32)c1OC	0.8
CCCCCOc1ccc(C(=O)NC(CCC)C(=O)O)cc1 (stereo unspecified)	i
CCC(=O)Nc1ccc(NC(=O)Cc2ccccc2)cn1	i
O=c1c2cccnc2[nH]c(=S)n1CCCN1CCN(c2ccccc2F)CC1	i
NC(=O)c1nsc(C(=O)N(CC(=O)NCc2ccc(F)cc2)Cc2ccco2)c1N	2.8
CCc1ccc(CCC(=O)Nc2nnc(C)s2)o1	0.6
O=C(Nc1ccccc1)N1CCN(c2cccc(C(F)(F)F)c2)CC1	i
Cc1[nH]nc2ncc(C(=O)c3ccccc3O)cc12	2.1

Structures from the list above that have a COOH group (4):
SMILES	H5N1 CPE
CC(CC(=O)O)CC1=NS(=O)(=O)c2ccccc2N1 (stereo unspecified)	i
O=C(O)c1ccc2nc(C(F)(F)F)[nH]c2c1	1.1
O=C(O)CCCN=C1CCCc2ccccc2N1	i
CCCCCOc1ccc(C(=O)NC(CCC)C(=O)O)cc1 (stereo unspecified)	i

Next results follow:
SMILES	H5N1 CPE
c1ccc2c(CNn3cnnc3)cccc2c1	1.6
Cc1csc(N(C(=O)c2ccc(S(=O)(=O)N(C)C)cc2)c2ccccc2)n1	i
CCCC(=O)c1c[nH]c(C(=O)NCc2ccco2)c1	2.9
O=C1c2ccccc2C(=O)N1c1ccc(-c2nc3ccccc3o2)cc1	i
O=c1[nH]c2ccc(S(=O)(=O)NCc3ccccn3)cc2s1	0.3
CCN1CCN(C(=O)Nc2cccc3ccccc23)CC1	0.4
O=C(NCc1ccc(F)cc1)C1C2C=CC3(CN(Cc4cccnc4)C(=O)C13)O2 (stereo unspecified)	i
CCOc1cc(-c2nc(-c3ccc(C)nc3OCC)no2)cc(OCC)c1OCC	i
Cc1ccc(NC(=S)NNC(=S)NCc2ccccc2)cc1	i
OC(CNCc1ccco1)COc1ccccc1 (stereo unspecified)	0.2
CCOCCN(C(=O)COC)c1cccc(OC)c1	i
O=C(Cc1ccc(Br)cc1)N1CCN(c2ccccc2O)CC1	0.5

A different layout for some results above:
CCN1CCN(C(=O)Nc2cccc3ccccc23)CC1
  H5N1 CPE: 0.4
O=C(NCc1ccc(F)cc1)C1C2C=CC3(CN(Cc4cccnc4)C(=O)C13)O2 (stereo unspecified)
  H5N1 CPE: i
Cc1ccc(NC(=S)NNC(=S)NCc2ccccc2)cc1
  H5N1 CPE: i
O=c1[nH]c2ccc(S(=O)(=O)NCc3ccccn3)cc2s1
  H5N1 CPE: 0.3

Next results.
SMILES	H5N1 CPE
CC(C)(C)C(=O)Nc1ccnc(-c2cccnc2)n1	1.1
Cc1cc(-c2cccs2)nc(-n2cccc2)n1	i
CCOc1cc2c(C#N)c(N3CCNCC3)nc(N)c2c(N)n1	i
Cc1cc(NC(=O)c2cccc(S(=O)(=O)N3CCCC3)c2)no1	i
CC(C)(C)C(=O)Nc1ccc(C(=O)OC2CCCCC2)cc1	i
CC1(C)CC(=O)c2cnc(N)nc2C1	i
COc1ccc(C(=O)NCCn2cc(SCC(=O)N3CCOCC3)c3ccccc32)cc1	0.4
CC(=O)Nc1ccc(NC(=O)CSc2nnc(-c3ccccc3)n2Cc2ccc3c(c2)OCO3)cc1	i
O=C(ONc1ccc(N=NC(=O)c2ccccc2O)cc1)c1ccccc1	i
N#Cc1nc(COc2ccccc2)oc1N1CCCCCC1	1.5
CC(=O)c1cc(Cl)ccc1OC(=O)c1ccco1	0.4
CCOC(=O)C1CN(S(=O)(=O)c2ccccc2)C1	i
FC(F)(F)c1cccc(N2CCN(Cc3cccnc3)CC2)c1	i
COc1ccc(C(CC(=O)O)NC(=O)C2CCCCC2)cc1 (stereo unspecified)	i
Cc1cccc(OCCCC(=O)Nc2ccc(S(=O)(=O)N3CCCC3)cc2)c1	i
COC(=O)NC1CCS(=O)(=O)C1 (stereo unspecified)	i
COc1ccccc1NC(=O)C1=C(C)Nc2nc(CCCO)nn2C1c1ccc2c(c1)OCO2 (stereo unspecified)	i
CCOc1ccccc1C1C(C#N)=C(SCC(=O)OC)NC(=O)C1C(=O)OC (stereo unspecified)	0.1
Cc1cccc(-c2nnn(Cc3nnc(NC(=O)c4ccccc4)s3)n2)c1	i
CC(=O)Nc1nnc(C)s1	0.2
Cc1nn(C)c(Oc2ccccc2)c1CCNS(=O)(=O)c1ccc(F)cc1	i
O=C1CC(c2ccccc2)n2nc(NC(=O)c3ccccn3)nc2N1 (stereo unspecified)	0.1
CCCCN(CCCC)S(=O)(=O)c1ccc(OC)c2ncccc12	1.1
Cc1cc2c(n1-c1ccc(Br)cc1)CC(C)(C)CC2=O	0.3
N#CC1=C(Nc2ccccc2)SC=C(c2ccc(Cl)c(Cl)c2)N=C1N1CCOCC1	i
CCOc1ccc(-n2c(Cc3cc(=O)[nH]c(=O)[nH]3)nnc2SCC)cc1	i
N=c1n(-c2ccccc2)c(O)cc(=O)n1-c1ccccc1	0.6
CCOC(=O)c1c(C)nc2c(c1-c1cc(OC)c(OC)c(OC)c1)C(=O)c1ccccc1-2	1.0
O=C(Nc1ccccn1)NC12CC3CC(CC(C3)C1)C2	i
Cn1c(=O)c2c(SCc3cccc(C(F)(F)F)c3)nc(-c3ccco3)nc2n(C)c1=O	i
Cc1nn(-c2ncc(C(F)(F)F)cc2Cl)c(=O)n1-c1ccccc1Cl	1.6
COc1ccc(Cc2nnc(Nc3ccc(C)cc3C)[nH]c2=O)cc1	0.5
CC(C)C(=O)NC(NC(=S)Nc1cccc2cccnc12)C(Cl)(Cl)Cl (stereo unspecified)	0.7
O=C(NCc1cc(C(F)(F)F)cc(C(F)(F)F)c1)C1CC(c2c(Cl)cccc2Cl)=NO1 (stereo unspecified)	i
CN1CCN(C(=O)c2ccc(CN3CCOCC3)cc2)CC1	i
CCOc1ccc(N=C2NC(=O)S/C2=C\c2ccc(N(C)C)cc2)cc1	i
c1ccc(-c2noc(-c3cccc4ccccc34)n2)nc1	3.2
Cc1c(NC(=O)C2(c3ccccc3)CCOCC2)c(=O)n(-c2ccccc2)n1C	i
O=C(CSc1nnc(-c2cccc(S(=O)(=O)N3CCCCC3)c2)o1)c1ccc[nH]1	i
CCOc1cc(CNc2ccc(OC)cc2)cc(Br)c1OCC(=O)NC(C)(C)C	1.1
Cc1ccc2nc(Nc3ccccc3O)nc(-c3ccccc3)c2c1	i
O=C(O)CSc1nnc(CNc2cccc(C(F)(F)F)c2)n1Cc1ccco1	0.1
Nc1ccccc1NC(=O)c1ccccc1N	i
Fc1ccccc1C(c1nnnn1Cc1ccc2c(c1)OCO2)N1CCN(Cc2ccco2)CC1 (stereo unspecified)	i
COc1ccc(N(CC(=O)N2CCc3ccccc32)S(=O)(=O)c2c(C)n[nH]c2C)cc1	i
CCc1ccc(-c2cc(C(=O)Nn3cnnc3)c3ccccc3n2)cc1	i
Cc1[nH]c(=O)[nH]c(=O)c1S(=O)(=O)NCC12CC3CC(CC(C3)C1)C2	0.6
COc1cccc(-c2cc(C(=O)N3CCCCC3C)no2)c1 (stereo unspecified)	1.0

Random excerpt: two entries already listed.
SMILES	H5N1 CPE
CCOc1cc(CNc2ccc(OC)cc2)cc(Br)c1OCC(=O)NC(C)(C)C	1.1
CCc1ccc(-c2cc(C(=O)Nn3cnnc3)c3ccccc3n2)cc1	i

(continued)
SMILES	H5N1 CPE
COc1cccc(CNCc2ccc(SC)cc2)c1OC	i
CCOC(=O)C1=C(O)C(=O)N(c2ccc(S(N)(=O)=O)cc2)C1c1ccc(OC)cc1 (stereo unspecified)	0.1
Cc1cccc(N(C)C(=O)CCS(=O)(=O)c2cccc3nonc23)c1	1.5
C1CSC2(N1)C1CC3CC2CC(C1)C31NCCS1 (stereo unspecified)	0.1
COc1cc(C2=NOC(C(=O)NCc3ccccn3)C2)cc(OC)c1OC (stereo unspecified)	i
Cc1ccccc1-c1nc2ccccc2c(=O)n1/N=C/c1ccccc1[N+](=O)[O-]	0.1
CCCc1nnc(SCC(=O)N2CCOCC2)n1Cc1ccco1	0.2
C=CCn1c(SCC(=O)Nc2ccc3c(c2)OCO3)nnc1-c1ccccc1OC	2.1
